High-throughput results deposited in PubChem BioAssay by National Center for Advancing Translational Sciences (NCATS).
TRPML1 blocker – inhibitors of human TRPML1 channel; AID 624415; TRPML1-inducible cells, Ca2+ dye fluorescence, FDSS; stronger effect = lower value; inhibition of EC80 agonist-evoked calcium signal; activity change, negative = inhibition, % (concentration not given with the values); Q9GZU1; 0.02% of 390,000 active; in the data active means activity change below about -50%; inconclusive means about -30% to -50%; inactive means above about -30%;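 further: stimulus is agonist 54-4 at its EC80 concentration; on the % scale 0 is the no-effect control and ±100 the full control effect; compound concentration not given in the record; the text of the record puts the active cut at -80%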
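Tet-induced TRPML1-DL cells loaded with Ca8 no-wash calcium dye were read kinetically on FDSS. Compound addition was followed by EC80 agonist 54-4 (4 uM final); inhibition was read over 110 s.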
PINK1 modulator – changes PINK1 expression; AID 624263; 0.2% of 410,000 active; PINK1 immunofluorescence, high-content cytometry, 24 h; Potency, µM (doses to about 76.6 µM), inactives show at the highest dose activation (PINK1 increase), usual class: activators; active = well fitted activation curve with a large enough effect; inconclusive = small, poorly fitted or top-dose-only effect; inactive = flat fitted curve, though single readings scatter; cell line not stated here;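 further: potency means the concentration at half of the fitted maximal effect; % of control where 0% means no effect; nearly all actives have a fitted effect of over 65% in size; a mitochondrial uncoupler was the plate control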
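Measures PINK1 amount and localization on or inside mitochondria by immunofluorescence. Stable cells get compounds at 5 concentrations for 24 hours before fixation and staining; CCCP controls included.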
D2 ag – human D2 receptor agonism in beta-arrestin assay; DiscoveRx PathHunter D2 beta-arrestin, luminescence, 90 min; 100% = 57 uM dopamine signal; activation, % (concentration not given with the values); 0.084% of 360,000 active; in the data active = activation above about 40%; inconclusive = about 15% to 40%; inactive = below about 15%; further: compound concentration not given in the record; the text of the record calls up to 30% inactive
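Agonist mode: compounds alone added to overnight-plated D2 PathHunter cells for 90 min at 37 C, with 57 uM final dopamine (EC100) defining full response. Beta-arrestin recruitment detected by chemiluminescent reagent, read after 1 h at ambient temperature.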
D2 potentiator – human D2 receptor positive allosteric modulation; DiscoveRx D2 beta-arrestin cells, luminescence, 90 min; 100% = 57 uM dopamine signal; potentiation, % (no concentration beside the values); 0.23% of 360,000 active; AID 624464; active = potentiation of 50% or more; inconclusive = 30% to 50%; inactive = 30% or less;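 further: compound concentration not given in the record; tested on top of an EC20 dose of dopamine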
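D2 cells co-treated with compound plus 50 nM dopamine (EC20) for 90 min at 37 deg C to detect potentiation. Beta-arrestin recruitment was read as enzyme-fragment luminescence after 1 h at ambient temperature. Full response was set by 57 uM dopamine.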
TRPML1 ag – human mucolipin-1 channel agonism; Q9GZU1; AID 624414; TRPML1-expressing cells, Ca2+ dye fluorescence, FDSS; host cell line not named in the record; reference of the full effect not given here; 0.12% of 410,000 active; activation, % (test concentration not listed); in the data active = activation above about 50%; inconclusive = about 30% to 50%; inactive = below about 30%; further: 0% is about no effect; the text of the record puts the active cut at 80%
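Tet-induced TRPML1-DL cells, 1,500 per well, cultured overnight, were loaded with a no-wash Ca2+ dye for 45–90 min. Calcium fluorescence was recorded on the FDSS for 110 s after compound addition, before the EC80 agonist (4 uM 54-4) was added.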
Six1-Eya2 inh – Six1/Eya2 interaction inhibition; Q15475+O00167; AlphaScreen GST-Six1/His-Eya2 binding, biochemical; stronger effect = lower value; control for the full effect not named in the record; activity change, % (test concentration not listed); 0.56% of 360,000 active; in the data active = activity change below about -65%; inconclusive = about -30% to -65%; inactive = above about -30%; further: on the % scale 0 is the no-effect control and ±100 the full control effect; compound concentration not given in the record
Target sequence (O00167 whole entry, looked up): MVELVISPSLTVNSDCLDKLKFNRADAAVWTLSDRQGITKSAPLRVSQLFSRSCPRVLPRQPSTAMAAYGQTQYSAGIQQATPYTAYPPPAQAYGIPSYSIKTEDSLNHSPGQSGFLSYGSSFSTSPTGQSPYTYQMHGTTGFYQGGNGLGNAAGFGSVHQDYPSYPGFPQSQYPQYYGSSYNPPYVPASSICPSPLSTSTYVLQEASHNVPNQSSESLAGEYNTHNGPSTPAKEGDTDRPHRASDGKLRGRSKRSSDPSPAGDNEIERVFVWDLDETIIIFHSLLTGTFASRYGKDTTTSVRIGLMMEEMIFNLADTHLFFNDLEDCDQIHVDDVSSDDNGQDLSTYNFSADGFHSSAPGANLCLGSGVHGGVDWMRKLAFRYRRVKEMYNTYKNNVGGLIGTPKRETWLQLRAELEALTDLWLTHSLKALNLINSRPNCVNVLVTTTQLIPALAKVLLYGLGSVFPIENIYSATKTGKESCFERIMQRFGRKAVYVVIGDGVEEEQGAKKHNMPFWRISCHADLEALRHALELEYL
Target sequence (Q15475 whole entry, looked up): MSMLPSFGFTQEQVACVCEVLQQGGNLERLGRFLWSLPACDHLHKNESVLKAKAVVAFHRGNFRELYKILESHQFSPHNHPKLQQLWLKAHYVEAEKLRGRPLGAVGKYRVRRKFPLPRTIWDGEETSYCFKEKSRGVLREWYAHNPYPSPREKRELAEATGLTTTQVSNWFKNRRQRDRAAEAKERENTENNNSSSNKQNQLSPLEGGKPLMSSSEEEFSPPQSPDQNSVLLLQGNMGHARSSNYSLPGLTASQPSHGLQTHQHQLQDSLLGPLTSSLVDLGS
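Homogeneous AlphaScreen proximity assay pairing GST-Six1 with His-tagged Eya2 (added as 5X mix: 250 nM and 500 nM) in 50 mM Tris pH 8.0, 300 mM NaCl, 1 mM TCEP. Glutathione donor and nickel acceptor beads; 1 h, 37 °C, dark.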
* marks the source's active call; other numbers are inactive results; ? = inconclusive; · = no result given; & = joins results of further samples; [ ] = dose if it differs, or a comment. The order is random; 1% or so of the library scored in one or more.

Structure	TRPML1 blocker	PINK1 modulator	D2 ag	D2 potentiator	TRPML1 ag	Six1-Eya2 inh
Cc1ccc(O)c(NC(=O)CN(C)S(=O)(=O)c2ccc(Cl)cc2)c1	-20	8.9%	0.2	-3	2.2	-1
Cc1ccccc1CN(C)C[C@H]1OCc2cnnn2CCCC(=O)N([C@@H](C)CO)C[C@@H]1C	-5	-1.0%	-2.9	1	-0.3	6
COc1ccc(NC(=O)c2cccs2)cc1	6	0.8%	-3.5	-7	-0.1	24
CC(=O)CC1(C)OC(N)=C(C#N)C1(C#N)C#N (stereo not given)	8	-2.6%	-2.5	-36	-0.5	6
CCN(Cc1ccccc1)S(=O)(=O)c1cc(C(=O)OC)n(C)c1	3	14%	-3.5	1	2.5	8
O=C1NC(Cc2ccc(O)cc2)c2nc3ccc(Br)cc3c(=O)n2-c2ncccc21 (stereo not given)	10	11%	-8.0	-3	0.3	0
CCN(CC)CCc1nc(-c2ccccc2)no1	-8	4.1%	-5.5	-12	-0.7	7
Cc1ccc2c(c1)-c1c(ssc1=S)C(C)(C)N2C(=O)CN1C(=O)c2ccccc2C1=O	?	-0.6%	-4.1	-2	1.9	-9
Cc1ccc(C)c(N2CCN(C(=O)Cn3nc(Cc4cccnc4)c4ccccc4c3=O)CC2)c1	-4	1.0%	·	·	1.7	·
Cc1ccc(CNC(=O)C2CCCN(S(=O)(=O)c3ccc4c(c3)oc(=O)n4C)C2)cc1 (stereo not given)	7	1.3%	·	·	-0.4	·

Additional results follow.
Structure	TRPML1 blocker	PINK1 modulator	D2 ag	D2 potentiator	TRPML1 ag	Six1-Eya2 inh
COc1ccccc1Nc1ncnc2sccc12	·	1.7%	1.6	-7	·	-5
CCc1ccc(C2CC(=O)N(c3cccc(C(F)(F)F)c3)C3=C2C(=O)OC3)cc1 (stereo not given)	3	-4.0%	·	·	1.1	·
Cc1c(CCC(=O)NCCc2ccccc2F)c(=O)oc2cc(O)ccc12	-8	1.5%	·	·	0.3	·
Cc1cnc(C(=O)OCC(=O)Nc2ccccc2-c2ccccc2)cn1	-11	-0.6%	-1.1	0	-0.4	-1
O=C(COc1ccccc1)NC1CCCc2ccccc21 (stereo not given)	-7	0.5%	-1.4	-5	-0.3	1
O=C1CC(C(=O)N2CCN(c3ccccc3)CC2)CN1Cc1ccccc1 (stereo not given)	-7	-1.9%	11	-23	-0.5	-3
Cn1c(O)c(C2=c3ccccc3=NC2=O)[nH]c1=S	-8	7.4%	4.7	19	0.6	?
Cc1ccc(C2c3c(-c4ccccc4O)n[nH]c3C(=O)N2CCc2ccccc2)cc1 (stereo not given)	35	5.8%	·	·	2.6	·
Cc1ccc(/C=N/NC(=O)Cn2nccc2C)o1	19	3.2%	1.1	17	0.9	8
Cc1ccc(C(C)C)c(OCC(=O)N/N=C/C2CCCCC2)c1	-10	14%	-2.3	0	-0.3	-2

(continued)
Structure	TRPML1 blocker	PINK1 modulator	D2 ag	D2 potentiator	TRPML1 ag	Six1-Eya2 inh
Cc1nc2ccccn2c1C(=O)NC1CCCCC1	-1	-1.7%	-2.0	-7	3.4	0
COc1cccc(NC(=S)N(CCc2c(C)[nH]c3ccc(C)cc23)Cc2cccs2)c1	1	8.5%	-4.1	4	-1.0	-12
O=C(NC1CCCc2ccccc21)c1c(F)cccc1Cl (stereo not given)	-5	3.9%	-1.8	-2	-0.4	1
O=[N+]([O-])c1cccc2c(N3CCCC3)ccnc12	19	15%	9.4	9	0.1	-2
O=C1CCc2cc(S(=O)(=O)Nc3ccccc3)cc3c2N1CC3	18	3.0%	8.8	3	0.2	7
Nc1c(C(=O)c2ccc3c(c2)OCO3)sc(Nc2ccccc2F)c1S(=O)(=O)c1ccccc1	10	-1.0%	·	·	0.7	·
CS(=O)(=O)C1=NSC2=NC(=O)/C(=C\c3cccn3-c3ccc(Cl)cc3)C(=N)N21	12	-1.2%	-0.9	-12	0.0	-22
Cc1ccc2nc(-c3ccc(Cl)c(NC(=O)COc4ccc(C(C)C)cc4)c3)oc2c1	-20	-1.1%	·	·	-0.3	·
CC(=O)OCC(=O)C1(O)CCC2C3CCC4=CC(=O)CCC4(C)C3C(O)CC21C (stereo not given)	-2	9.2%	4.6	-4	-0.7	-2
OCc1ccccc1NC(=S)Nc1cccnc1	22	1.3%[38.3 µM]	-3.3	-3	1.9	0

Next section
Structure	TRPML1 blocker	PINK1 modulator	D2 ag	D2 potentiator	TRPML1 ag	Six1-Eya2 inh
CCCCCCNC(=O)CC(NS(=O)(=O)c1ccc(NC(C)=O)cc1)C(C)C (stereo not given)	-9	15%[38.3 µM]	-3.6	1	0.1	27
CCCn1c(=O)n(C)c(=O)c2c(SCC(=O)Nc3cc(C)on3)nc(C(C)(C)C)nc21	9	2.1%	5.1	6	3.2	-2
CN(C)CCN1CCN(c2cc(-c3cccc(Cl)c3)nc3ccnn23)CC1	·	0.3%	-5.5	-10	-0.1	8
O=C1C(=O)N(C2CCN(C(=O)c3ccc(F)cc3)CC2)CCN1Cc1ccc(F)cc1	-18	2.0%	·	·	-0.7	·
CCC(=O)NC(=S)Nc1ccccc1C(F)(F)F	-23	4.9%	-3.0	-4	-0.2	9
Cc1c(C#N)c2ncn(Cc3ccccn3)c(=O)c2n1-c1ccccc1	35	-0.2%	0.0	3	-0.7	6
CCc1ccc(CNc2ccc3c(c2)ncn3C(C)(C)C)cc1	1&27	-0.6%&1.6%	-2.7	-19	0.8&0.0	-14
O=C(O)c1cccc(NC(=S)N/N=C/c2cccnc2)c1	-2	0.4%	8.8	2	-0.5	-1
CC1(C(=O)Nc2ccc3c(c2)OCCO3)CC1(Cl)Cl (stereo not given)	-9	0.4%	4.3	7	-0.5	6
O=C(NC1CCCCCC1)C1CCN(c2nc3ccccc3o2)CC1	17	2.8%	-0.2	-3	0.8	2

New compounds follow:
Structure	TRPML1 blocker	PINK1 modulator	D2 ag	D2 potentiator	TRPML1 ag	Six1-Eya2 inh
Cc1cc(Cl)ccc1NNC(=O)c1c(C)noc1C	-13	0.4%	6.5	26	0.2	0
Cc1cccc(C)c1N1CC(c2nc3ccccc3n2CC(=O)OC(C)C)CC1=O (stereo not given)	7	1.3%	·	·	0.2	·
O=C(COc1cccc(F)c1)NNC(=O)Cc1ccc(Br)cc1	1	0.3%	1.0	-5	-0.3	-2
O=C(C1=C(O)C(=O)N(CC2CCCO2)C1c1ccccc1[N+](=O)[O-])c1ccco1 (stereo not given)	3	1.5%	4.1	2	-0.2	10
CN(C)CCNC(=O)CN1C(=O)COc2ccc(C(C)(C)C)cc21	5	1.3%	-2.5	-11	-0.6	6
COc1ccc(CC(N)c2csc(NC(=O)Nc3ccccc3-c3ccccc3)n2)cc1 (stereo not given)	·	-0.6%	14	-9	-0.2	-14
Cc1oc(/C=N/NC(=O)CC2(C)OCCO2)cc1Br	18	2.1%	-1.5	-6	-0.6	0
Cc1cc(C)nc(NC(=O)c2cc(-c3ccc4c(c3)OCO4)nc3ccccc23)c1	-5	?	-7.4	-23	2.2	30
CSc1cccc(NC(=O)/C=C/c2ccc(Cl)cc2)c1	-9	?	-1.5	-9	-0.3	2
O=c1c2cnn(-c3ccccc3)c2ncn1CCc1ccccc1	6	4.3%	-0.4	9	2.4	2

Going on with the list:
Structure	TRPML1 blocker	PINK1 modulator	D2 ag	D2 potentiator	TRPML1 ag	Six1-Eya2 inh
Cn1cc(Br)c(C(=O)N2CCc3ccccc32)n1	2	6.8%	-0.5	-4	-0.4	9
CN1C(C(=O)NCc2ccco2)CC2Cn3c(nc4ccccc43)C21 (stereo not given)	14	0.7%	-3.9	-1	0.2	3
COc1ccc(CCn2nnnc2C(c2ccc(Cl)cc2)N2CCN(C)CC2)cc1OC (stereo not given)	2	-1.2%	-5.0	-7	0.3	-9
CCCc1nn2c(=O)cc(COC(=O)c3cccc(NC(=O)COc4ccccc4C)c3)nc2s1	-10	0.9%	·	·	-0.7	·
CCc1cccc(CC)c1NC(=O)CN(C)S(=O)(=O)c1ccc2c(c1)n(C)c(=O)c(=O)n2C	-7	2.1%	·	·	1.0	·
CCOc1cc(OCC)cc(C(=O)N2CCC[C@H]2C(=O)N2CCC[C@H]2C(=O)NCc2ccncc2)c1	·	1.0%	·	·	-0.2	0
Cc1ccc(S(=O)(=O)N(C)C)cc1NC(=O)COC(=O)Cc1cccs1	-5	0.0%	-2.3	-14	0.4	1
CCN(CC)CCCn1c(=S)[nH]c2cc(Cl)ccc2c1=O	14	3.1%[38.3 µM]	0.7	-18	0.0	0
CC1=C(C(=O)OC(C)C)C(c2cccc(F)c2)n2ncnc2N1 (stereo not given)	33	1.6%	-2.8	-4	0.6	-1
O=C(Nc1ccccc1)N1CCN(Cc2ccc(Cl)cc2)CC1	11	0.5%	-4.5	-12	0.6	-1

3 entries out of the list above, ordered by their value in Six1-Eya2 inh, rising.
structure	Six1-Eya2 inh
COc1ccc(CCn2nnnc2C(c2ccc(Cl)cc2)N2CCN(C)CC2)cc1OC (stereo not given)	-9
CC(=O)OCC(=O)C1(O)CCC2C3CCC4=CC(=O)CCC4(C)C3C(O)CC21C (stereo not given)	-2
CCN(Cc1ccccc1)S(=O)(=O)c1cc(C(=O)OC)n(C)c1	8

Other results:
Structure	TRPML1 blocker	PINK1 modulator	D2 ag	D2 potentiator	TRPML1 ag	Six1-Eya2 inh
CCCOC(=O)c1cc(=O)[nH]c2ccccc12	10	-0.5%	-6.6	-16	-0.2	18
Cc1ccc(C(=O)Nc2cccnc2)cc1S(=O)(=O)N1CCOCC1	16	-0.4%	-0.9	5	0.2	-1
O=C(NCc1ccc(F)cc1)c1cnc(N2CCCCC2)c2ccccc12	-1	0.2%	·	·	0.5	·
Cc1cc(NC(=O)CSc2nnc(-c3cccnc3)n2Cc2ccccc2)no1	-11	0.5%	-2.2	-33	-1.1	0
CO/N=C/NC(=O)c1ccc([N+](=O)[O-])c(CS(=O)(=O)c2ccc(Cl)cc2)c1	4	1.0%	0.2	24	-0.7	-7
Cc1ccc(S(=O)(=O)N2CCCCC2)cc1NC(=O)CN1CCCC1c1cccs1 (stereo not given)	1	1.3%	-2.8	-4	-0.8	-1
COc1ccc(CCNC(=O)CSc2nncs2)cc1	-6	2.9%	1.4	-2	-0.1	6
